# Screens as filed in PubChem BioAssay.
# Measles inh: inhibitors of measles virus growth in infected cells; infected Vero cells, GFP fluorescence, 64 h; hits give low values; z-score (concentration not given with the values); 33,000 tested, 0.1% active; AID 745;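 active = z-score under -3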;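 note: score is relative to mean and SD of the compound wells of a plate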
# Starred values were filed as active, the others as inactive. Some of the compounds tested; the hit share may differ from the screen's.
molecule	Measles inh
Cc1cc(C)cc(OC(=O)CCN2C(=O)c3ccccc3C2=O)c1	0.29
O=C(CCC1CC(=O)Nc2ccccc21)NCc1cccnc1 (centres undefined)	-0.79
CCc1c(-c2ccccc2)n(CCc2ccc(OC)c(OC)c2)c2nc3c(c(=O)n(C)c(=O)n3C)n12	0.69
O=C(COC(=O)c1ccc(N2C(=O)C3C4c5ccccc5C(c5ccccc54)C3C2=O)cc1)c1ccc([N+](=O)[O-])cc1 (centres undefined)	-0.29
CCOC(=O)C1CCN(c2nc3ccc(CC)cc3s2)CC1	-0.36
Cc1onc(-c2ccccc2Cl)c1C(=O)NCC12CC3CCC(CC(C3)C1)C2	-2.14
CCOc1ccc(/C(O)=C2\C(=O)C(=O)N(c3nccs3)C2c2ccc(C(C)C)cc2)cc1 (centres undefined)	1.85
CC(C)c1cc([N+](=O)[O-])c2nc(NC(=O)C3CCCCC3)sc2c1	1.56
O=C1C2C3C=CC(O3)C2C(=O)N1c1ccccc1Br (centres undefined)	1.14
COc1ccc(C)cc1NC(=O)Cn1cnc2sc(C)c(S(=O)(=O)N3CC(C)CC(C)C3)c2c1=O (centres undefined)	-0.52
CCOc1cccc(C(Nc2ccccn2)c2ccc3ccc(C)nc3c2O)c1 (centres undefined)	-0.35
COc1cccc(NC(=O)c2cc(S(=O)(=O)NCc3ccccc3)ccc2F)c1	-0.09
CCCN(c1ccc(C(C)C)cc1)S(=O)(=O)c1cc(Br)cc2c1N(C(=O)CC)CC2	1.21
C=CCNC(=O)C1CC(=O)N(C2CCCCCC2)C1 (centres undefined)	-0.8
COc1ccc(C(=O)Oc2ccc3c(c2)OCO3)cc1OC	-0.25

# Next part
molecule	Measles inh
CCOc1cccc2c1OC1(C)C(C(=O)Nc3ccc(C)cc3C)C2NC(=S)N1CC (centres undefined)	-0.24
COC(=O)c1ccc(C2C=C(c3ccccc3)Nc3nc4ccccc4n32)cc1 (centres undefined)	-1.72
CC(C)(C)n1nc2c(c1NC(=O)c1ccc(S(=O)(=O)N3CCCC3)cc1)CSC2	0.91
CCCCNS(=O)(=O)c1ccc(OCC)c2ncccc12	0.11
c1csc(-c2nc3ncccn3c2NC2CCCC2)c1	-0.48
CCOC(=O)C1=NN=C2C(=O)N(c3ccc(Br)cc3)C(=O)C12 (centres undefined)	-2.37
CC1CCC2C(=O)N(c3ccc(NCc4cccc(Cl)c4)c([N+](=O)[O-])c3)C(=O)C2C1 (centres undefined)	-1.97
Cn1c2c(c(=O)n(C)c1=O)C(c1ccc(C(F)(F)F)cc1)C1=C(N2)c2ccccc2C1=O (centres undefined)	-0.24
COc1ccc(NC(=O)C(c2cc3c(cc2[N+](=O)[O-])OCO3)N2CCN(C(=O)c3ccco3)CC2)cc1 (centres undefined)	0.59
[O-][n+]1c2c(nn1-c1ccccc1Cl)-c1nonc1CC2	-0.11
CC1(C)CNC(=O)CC(C)(C)N1	1.18
Cc1ccc(C(C)C)c(OCCOCCN2CCCCC2)c1	-0.45
COc1ccc(NC(=O)C2=C(C)NC3=C(C(=O)CC(c4ccc(OC)c(OC)c4)C3)C2c2cccs2)cc1 (centres undefined)	-0.22
COc1ccc(N2CCN(C(=O)c3cc(C)on3)CC2)cc1	-0.14
COc1ccc2oc(=O)c(C(=O)C[n+]3cccc(C)c3)cc2c1	0.43

# Next part.
molecule	Measles inh
O=C(c1ccc(Br)cc1)N1CCN(c2ccc([N+](=O)[O-])c(N3CCOCC3)c2)CC1	-0.37
Cc1cccc(C)c1N(C)S(=O)(=O)c1ccc2[nH]cc(C(=O)N3CCN(Cc4ccccc4)CC3)c(=O)c2c1	-0.14
CC(Oc1ccccc1)C(=O)N1CCN=C1SCc1ccccc1 (centres undefined)	0.64
O=C(Oc1ccccc1)Oc1ccc2oc(=O)sc2c1	-1.34
CCOC(=O)c1c[nH]c2c(C)cc(C)cc2c1=O	-0.41
CCOc1ccc2nc(NC(=O)CCN3C(=S)NC(C)(C)CC3C)sc2c1 (centres undefined)	0.28
CCCCC(=O)N1c2ccccc2NC2=C(C(=O)CCC2)C1c1ccco1 (centres undefined)	0.47
COc1ccc(C(=O)N2CCCCCC2)c(OC)c1	-0.1
Cc1cc(C)cc(NC2=C(Cl)C(=O)N(c3ccc(Cl)cc3)C2=O)c1	-0.87
CCN(C(=O)c1ccc(N2CC3CC(C2)c2cccc(=O)n2C3)c([N+](=O)[O-])c1)c1cccc(C)c1 (centres undefined)	-0.12
O=C(NC1CCCCC1)C1CCCN(S(=O)(=O)c2cnc[nH]2)C1 (centres undefined)	0.58
CCOC(=O)c1c(NC(=O)COc2cc(C)ccc2C(C)(C)C)sc2c1CCCC2	0.29
CCC(C)c1ccc(NC(=O)C(C)Oc2cccc(Cl)c2)cc1 (centres undefined)	-0.89
CC1=CC(C)(C)N(C(=O)Nc2ccc(C)cc2)c2ccccc21	-0.53
Cc1ccc2c(c1)C1NC(=S)N(c3ccccc3)C(C)(O2)C1C(=O)N(C)C (centres undefined)	-1.41

# 3 compounds from above, arranged by heavy-atom count, high to low.
molecule	Measles inh
Cc1ccc2c(c1)C1NC(=S)N(c3ccccc3)C(C)(O2)C1C(=O)N(C)C (centres undefined)	-1.41
CCC(C)c1ccc(NC(=O)C(C)Oc2cccc(Cl)c2)cc1 (centres undefined)	-0.89
CCOC(=O)c1c[nH]c2c(C)cc(C)cc2c1=O	-0.41

# The listing continues:
molecule	Measles inh
COc1ccc(-n2c(C)nc3cc(C(=O)NCc4ccccc4OC)ccc32)cc1	-0.5
CCCCC1(O)C(C)C(c2ccccc2)NC(c2ccccc2)C1C (centres undefined)	-0.93
O=[N+]([O-])c1ccc(Cl)c(C2N(c3ccccc3)CCN2c2ccccc2)c1	-0.78
CC1Cc2nc(SCC(=O)Nc3ccccc3F)n(C)c(=O)c2S1 (centres undefined)	-0.31
O=[N+]([O-])c1cccc(N=Cc2ccc(OCc3ccc(F)cc3)cc2)c1	-0.65
COc1cccc(OC)c1C(=O)Oc1cccc2ccc(C)nc12	-0.39
O=C1CC(c2ccccc2Cl)CC2=C1C(c1coc3ccccc3c1=O)Nc1ccccc1N2 (centres undefined)	-0.73
O=C(CSc1cccc2cccnc12)Nc1cccc2ccccc12	-0.29
NC(=O)CN1C(=O)c2cccc3cccc1c23	-0.46
CC1(C)CC(=O)C2=C(C1)Nc1ccccc1NC2c1cccc(Cl)c1 (centres undefined)	0.86
Clc1c(-c2nc3ccccc3s2)sc2ccccc12	-0.9
CC(C)OC(=O)C(C)OC(=O)c1ccc([N+](=O)[O-])cc1Cl (centres undefined)	-0.17
CCc1ccc(Oc2ncnc(N)c2[N+](=O)[O-])cc1	1.08
CCOC(=O)C(C)OC(=O)c1cc([N+](=O)[O-])ccc1Cl (centres undefined)	1.88
O=c1[nH]c(-c2ccccc2Cl)nc2ccccc12	1.53

# (list continues)
molecule	Measles inh
COc1ccc(C2C(C(=O)NCCN(C)C)CCC(=O)N2c2ccc3c(c2)OCO3)cc1 (centres undefined)	-0.25
Cc1n[nH]c(C)c1N1C(=O)c2cccc3c([N+](=O)[O-])ccc(c23)C1=O	7.7
O=C(O)CCNc1ncnc2ccccc12	-0.06
CC(C)(C)c1csc(NC2=NS(=O)(=O)c3ccccc32)n1	-0.24
CC1(C)CC2CC(C)(CN2Cc2c(O)ccc3ccccc23)C1 (centres undefined)	-0.05
COc1ccc(S(=O)(=O)Nc2ccc(CC(=O)O)cc2)cc1OC	-0.25
O=C1CN(C(=O)c2cccc(Cl)c2)C(c2ccc(F)cc2)c2cc(Br)ccc2N1 (centres undefined)	-0.2
Cc1ccc(-c2nnc(Nc3ccc4c(c3)OCO4)c3ccccc23)cc1S(=O)(=O)NCc1ccccn1	0.12
O=C1CCCN1CCCn1c(=S)[nH]c2ccccc2c1=O	-0.96
c1ccc(-c2nc(N3CCCC3)nc3ccccc23)cc1	0.44
O=C(OCc1ccccc1)C1CCCN1c1nc(-c2ccc(Br)cc2)cs1 (centres undefined)	1.12
CCN(CC)c1ccc2cc(C(=O)Nc3ccc(C#N)cc3)c(=O)oc2c1	1.63
Cc1ccc2c(c1C)NC(C(=O)O)C1CC=CC21 (centres undefined)	0.28
N#Cc1ccccc1NC(=O)CCN1C(=O)c2ccccc2C1=O	-0.72
O=C1CSC(c2ccccc2)N1CC(O)c1ccc([N+](=O)[O-])cc1 (centres undefined)	-1.01

# Six entries from above, reformatted.
Measles inh | canonical_smiles
-0.96 | O=C1CCCN1CCCn1c(=S)[nH]c2ccccc2c1=O
0.44 | c1ccc(-c2nc(N3CCCC3)nc3ccccc23)cc1
1.12 | O=C(OCc1ccccc1)C1CCCN1c1nc(-c2ccc(Br)cc2)cs1 (centres undefined)
1.63 | CCN(CC)c1ccc2cc(C(=O)Nc3ccc(C#N)cc3)c(=O)oc2c1
0.28 | Cc1ccc2c(c1C)NC(C(=O)O)C1CC=CC21 (centres undefined)
-0.72 | N#Cc1ccccc1NC(=O)CCN1C(=O)c2ccccc2C1=O

# Other results follow:
molecule	Measles inh
COc1cccc(-c2nnc(SCC(=O)Nc3ccccc3F)n2-c2ccccc2)c1	0.09
Cc1ccccc1NC(=O)c1cc2c(CO)cnc(C)c2oc1=Nc1cccc(F)c1	-0.1
Cn1c(SCC(=O)NCc2ccccc2)nnc1-c1ccc(C(C)(C)C)cc1	0.79
Cc1cc(NS(=O)(=O)c2ccc(NC(=O)c3ccc(C)c(I)c3)cc2)no1	-0.01
CCOc1ccc(C(=O)Nc2ccc(Cc3ccncc3)cc2)cc1Br	0.32
CC(=O)c1c(C)[nH]c(C(=O)Nc2cc(C)ccn2)c1C	1.32
O=C(CSc1nc2ccccc2c(=O)n1-c1ccccc1)Nc1ccc(F)c([N+](=O)[O-])c1	-0.28
Cc1ccc(CCNS(=O)(=O)c2ccc3c(c2)CCN3C(=O)C2CCC2)cc1	-0.21
COc1cc2c(cc1OC)C(COc1ccc([N+](=O)[O-])cc1)N(C(=O)C1CC1)CC2 (centres undefined)	-0.46
CCOCCOC(=O)C1=C(C)N(C)C(=O)NC1c1ccc(C(F)(F)F)cc1 (centres undefined)	-0.5
O=C(Nc1nc(-c2ccccn2)cs1)c1sc2ccccc2c1Cl	-1.5
S=c1[nH]nc(-c2ccco2)o1	0.24
Cc1nc2nc(=S)[nH]n2c(C)c1Cc1cccc(Cl)c1	-0.13
COC(=O)C1C(=O)C2=C(CC1C)NC(C)=C(C(=O)OC(C)C)C2c1cccc([N+](=O)[O-])c1 (centres undefined)	0.35
O=C1CSC(=S)N1c1cccc([N+](=O)[O-])c1	1.45

# Molecules shown so far containing a CF3 group, in the order listed:
molecule	Measles inh
Cn1c2c(c(=O)n(C)c1=O)C(c1ccc(C(F)(F)F)cc1)C1=C(N2)c2ccccc2C1=O (centres undefined)	-0.24
CCOCCOC(=O)C1=C(C)N(C)C(=O)NC1c1ccc(C(F)(F)F)cc1 (centres undefined)	-0.5

# Further structures follow.
molecule	Measles inh
CCOC(=O)C1=CC2(SC=C(C(=O)OCC)S2)C2=C(S1)C(C)(C)N(C(=O)Cc1ccccc1)c1ccccc12 (centres undefined)	-0.4
COc1ccc(N2CC(C(=O)NCCc3ccc(Cl)cc3)CC2=O)cc1 (centres undefined)	-1.94
O=c1cc(CSc2nc(NCC3CCCO3)c3ccccc3n2)nc2ccc(Cl)cn12 (centres undefined)	0.66
Cc1cc(=O)[nH]c(N2CCCC2)n1	0.24
O=C1CCC(=O)N1c1ccc(S(=O)(=O)Nc2cccc([N+](=O)[O-])c2)cc1	-0.91
COc1ccc(C(CC(=O)O)NC(=O)C2CCCCC2)cc1C (centres undefined)	-0.83
O=C(CN1C(=O)C2C3C=CC(C3)C2C1=O)NC1CCCCC1 (centres undefined)	-1.86
O=C(CSc1nc2c(sc(=S)n2CC2CCCO2)c(=O)n1-c1ccc(F)cc1)NCc1ccco1 (centres undefined)	0.01
COc1cc(N2C(=O)C3C4C=CC(C4)C3C2=O)c(OC)cc1Cl (centres undefined)	-0.5
COc1ccc(C2CC(=O)C3=C(C2)Nc2ccccc2NC3c2ccc(C)o2)cc1 (centres undefined)	-0.14
CC(C)(C)c1ccc2c(c1)C(=O)c1ccccc1C2=O	1.88
CC1CCCCN1S(=O)(=O)c1ccc2[nH]c(=O)cc(C(=O)NC3CCCCCCC3)c2c1 (centres undefined)	0.41
COC(=O)c1cc(CCC=C(C)C)nc2ccccc12	1.42
O=C(O)CCS(=O)(=O)c1ccc2[nH]c(=O)oc2c1	0.05
O=C(Nc1ccc(-c2nc3ccccc3o2)c(O)c1)c1sc2ccccc2c1Cl	0.33

# Looked up above.
# Value of COc1ccc(C2CC(=O)C3=C(C2)Nc2ccccc2NC3c2ccc(C)o2)cc1 (centres undefined) under Measles inh: -0.14
# Value of O=C(CSc1nc2c(sc(=S)n2CC2CCCO2)c(=O)n1-c1ccc(F)cc1)NCc1ccco1 (centres undefined) under Measles inh: 0.01

# Next entries.
molecule	Measles inh
Cc1ccc(-c2nnc(Nc3ccc(S(N)(=O)=O)cc3)c3ccccc23)cc1S(=O)(=O)NC(C)(C)C	1.71
Cc1ccc(NC(=O)CSc2nc3ccccc3c(=O)n2Cc2ccc3c(c2)OCO3)cc1Cl	-0.39
O=C(CN1C(=O)c2ccccc2S1(=O)=O)N(Cc1ccccc1)Cc1ccccc1	2.18
CCc1nn(-c2ccccc2)c2nc(-c3ccc([N+](=O)[O-])cc3)c3cc(OC)c(OC)cc3c12	0.59
COc1ccccc1CNC(=O)c1oc2ccc(S(=O)(=O)N3CC(C)CC(C)C3)cc2c1C (centres undefined)	0.46
CC(=O)OC(=C(Cl)Cl)c1ccc(C(OC(C)=O)=C(Cl)Cl)cc1	-1.37
O=C1C(=O)N(CCCn2ccnc2)C(c2ccc(Br)cc2)/C1=C(\O)c1ccc(Br)cc1 (centres undefined)	1.53
CCc1nnc(NC(=O)C(C(C)C)N2C(=O)c3ccccc3C2=O)s1 (centres undefined)	-1.35
CC1=NC(c2ccccc2)(c2ccccc2)c2ccccc2N1	-1.17
FC(F)(F)c1nc2ccccc2nc1N1CCc2ccccc2C1	-0.7
CC(C)CSc1nc2ccccc2[nH]1	0.32
O=C(CCc1nc(-c2ccccc2F)no1)NC1CCCC1	-0.47
